# High-throughput results (PubChem)
# gsp ag = gsp mutant agonism; Potency, µM (titrated, usually from 76.9 µM), without a hit: at the top dose activation (cAMP increase), most hits filed as activators; gsp mutant cells, cAMP HTRF, 30 min; control for the full effect not named in the record; hit rate 0.13% among 340,000; active = well fitted activation curve with a large enough effect; inconclusive = small, poorly fitted or top-dose-only effect, or another doubt; inactive = no such curve, though single readings can be large or run the other way; cell line not stated here;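 also: phosphodiesterase inhibitor Ro 20-1724 added with compounds to block cAMP breakdown; potency is read from the fitted curve at half-maximal effect; nearly all actives have a fitted effect of over 60% in size; about a fifth of the inactives were tested at one dose only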
#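 Cells in DMEM/10% FBS with G418 were pretreated with compounds in DMSO plus […] (300 uM stock) for 30 min at 37C. cAMP was measured by HTRF (cAMP-d2 plus anti-cAMP antibody-K) after 30 min at room temperature.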
# TRPV1 potentiator = enhances activation of the human vanilloid receptor TRPV1; AID 540277; potentiation, % at 8.33 µM; hit rate 0.02% among 320,000; Q8NER1; TRPV1-expressing cells, Fluo-8 calcium influx, capsaicin EC20 potentiation; host cell line not named in the record; control for the full effect not named in the record; active means potentiation above 80%; inconclusive means 30% to 80%; inactive means below 30%; also: 0% is about no effect
#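 TRPV1-expressing cells were cultured overnight at 35.5C and loaded with Fluo-8 calcium dye for 40 to 90 min at room temperature. After a 10 s baseline, compound was added and calcium influx was read kinetically for 3 min (ex 480/em 520 nm).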
# Menin-MLL FL inh = displaces fluorescein MLL peptide from human menin | Fluorescence polarization, fluorescein-MLL peptide displacement from menin | FP activity change, % at 61.4 µM | 290,000 tested, under 10 active | AID 1766; inconclusive = falling polarisation curve, or a change in total fluorescence; inactive = total fluorescence flat and polarisation flat or rising; no compound was filed as active; the % refers to the polarisation; negative = inhibition;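 also: % of control where 0% means no effect; inhibitors lower the polarisation; unlabelled MLL peptide was the positive control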
# ClpP mod = qHTS Assay for Activators of ClpP | purified B. subtilis ClpP, FRET peptide cleavage, 20 min | hit rate 1.9% among 340,000 | ATP-dependent Clp protease proteolytic subunit (Bacillus subtilis (strain 168)), P80244 | Potency, µM (doses to about 57.5 µM), inactives show at the highest dose activity change, negative = active; active = well fitted falling curve with a large enough effect; inconclusive = small, poorly fitted or top-dose-only effect; inactive = no such curve, though single readings can be large or run the other way; also: potency is read from the fitted curve at half-maximal effect; the source files actives as falling curves though it sought activators and does not explain the sign; nearly all actives have a fitted effect of over 65% in size; many hits overshoot -100%
# Target sequence (P80244 whole entry, looked up): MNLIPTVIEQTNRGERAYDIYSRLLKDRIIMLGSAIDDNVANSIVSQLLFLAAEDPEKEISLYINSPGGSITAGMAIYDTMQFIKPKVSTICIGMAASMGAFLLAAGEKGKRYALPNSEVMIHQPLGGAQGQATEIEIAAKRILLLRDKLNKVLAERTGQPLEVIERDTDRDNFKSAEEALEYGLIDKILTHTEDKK
#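 ClpP 10 microg/mL final, pH 8 Tris/KCl buffer with BSA, glycerol, Tween-20; compound pinned in; FRET-FV substrate; RT 20 min; Ex320/Em430; ΔFRET vs ADEP 5.8 microM, DMSO, no enzyme.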
# Sfp PPTase inh = inhibitors of Bacillus subtilis Sfp phosphopantetheinyl transferase; Potency, µM, without a hit: max response, negative = inhibition, hits mostly inhibitors; hit rate 3.5% among 310,000; Biochemical Sfp PPTase activity, qHTS; AID 1490; Q9F4F7; active = well fitted inhibition curve with a large enough effect; inconclusive = small, poorly fitted or top-dose-only effect, or another doubt; inactive = no such curve, though single readings can be large or run the other way;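 also: the enzyme is Sfp with the accession as filed and its product quenches rhodamine fluorescence; potency is read from the fitted curve at half-maximal effect; 0% = enzyme reaction without inhibitor and -100% = no enzyme wells; top concentration of the series not given in the record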
#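 After 15 min at room temperature with compound, 15 nM Sfp received 5 uM rhodamine-CoA plus 12.5 uM BHQ-2-ybbR (50 mM Hepes pH 7.6, 10 mM MgCl2). Rate came from the fluorescence difference over 30 min, ex 525/em 598 nm.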
# gsp antagonist = antagonizes gsp, the McCune-Albright syndrome mutation; Potency, µM (titrated, usually from 76.9 µM), for the others: at the top dose activity change, negative = inhibition, actives largely listed as inhibitors; gsp-mutant cells, cAMP HTRF, 30 min; control for the full effect not named in the record; hit rate 0.4% among 340,000; AID 624288; active = falling curve of any shape with a large fitted effect; inconclusive = falling curve, mostly with a smaller effect; inactive = flat or rising curve; cell line not stated here;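 also: intracellular cAMP measured with PDE inhibitor Ro 20-1724 present during compound exposure; potency is read from the fitted curve at half-maximal effect; % is scaled to controls: 0 for no effect and ±100 for the full control effect; nearly all actives have a fitted effect of over 65% in size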
#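 Cells, 2000/well, grown 16–24 h in DMEM 10% FBS with 0.5 mg/ml G418, then compounds plus […] (300 uM addition stock), 30 min at 37C. cAMP read by HTRF (cAMP-d2 and anti-cAMP antibody-K in lysis buffer) after 30 min RT.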
# D2 PAM = potentiates the human D2 dopamine receptor allosterically; DiscoveRx D2 beta-arrestin cells, luminescence, 90 min; 100% = 57 uM dopamine signal; potentiation, % (test concentration not listed); hit rate 0.23% among 360,000; AID 624464; active = potentiation of 50% or more; inconclusive = 30% to 50%; inactive = 30% or less;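 also: compound concentration not given in the record; tested on top of an EC20 dose of dopamine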
# Target sequence (P14416 whole entry, looked up): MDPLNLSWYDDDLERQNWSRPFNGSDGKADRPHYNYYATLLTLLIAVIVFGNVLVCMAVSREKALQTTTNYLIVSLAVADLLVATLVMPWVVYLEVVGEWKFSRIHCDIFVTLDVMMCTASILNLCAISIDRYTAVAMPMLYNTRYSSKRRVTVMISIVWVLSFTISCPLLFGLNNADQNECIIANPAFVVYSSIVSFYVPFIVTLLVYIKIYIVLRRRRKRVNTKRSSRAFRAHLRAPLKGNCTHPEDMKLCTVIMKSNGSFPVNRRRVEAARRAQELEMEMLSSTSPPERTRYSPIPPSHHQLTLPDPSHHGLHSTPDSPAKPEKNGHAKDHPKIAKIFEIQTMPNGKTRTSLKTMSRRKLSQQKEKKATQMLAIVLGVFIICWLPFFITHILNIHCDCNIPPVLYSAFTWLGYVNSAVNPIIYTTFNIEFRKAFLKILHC
#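 PathHunter D2 cells, attached overnight at 37 deg C, received compound in DMSO plus dopamine at EC20 (50 nM final) for 90 min at 37 deg C. Beta-arrestin recruitment was read as luminescence after 1 h with detection reagent at ambient temperature.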
# * hit, by the source's call; u = inconclusive; x = no result given; & = joins results of further samples; [ ] = dose if it differs, or a comment.
SMILES,gsp ag,TRPV1 potentiator,Menin-MLL FL inh,ClpP mod,Sfp PPTase inh,gsp antagonist,D2 PAM
Cc1ccc(S(=O)(=O)NC(CN2CCOCC2)=NCCNS(=O)(=O)c2ccccc2)cc1,-42%[inhibitor],1,-4.3,2.7%,2%,-1%,-4
CCOCCCn1c(C)nc2c(c1=O)c1nc3ccccc3nc1n2-c1ccc2c(c1)OCCO2,2%[15.4 µM],0,-20,0.1%,13%,-3%,-3
CCO[C@H]1OC(C(=O)NCc2nc3ccccc3[nH]2)=C[C@@H](c2cn(C(C)=O)c3ccccc23)[C@@H]1CCCO,x,x,x,0.0%,x,3%,-6
CS(=O)(=O)NCCCc1ccccc1,0%,u,-0.3,-1.9%,-2%,3%,20
Cc1ccc(S(=O)(=O)N2CCOCC2)cc1NC(=O)Cn1nc(C)c([N+](=O)[O-])c1C,-27%,0,x,-2.0%,x,9%,-7
Cc1[nH]c2ccccc2c1C(=O)COC(=O)Cn1c(C(F)(F)F)nc2ccccc21,u,3,5.7,1.0%,-20%,-24%,8
O=C(COC(=O)C1=COCCO1)Nc1ccccc1,-4%,4,1.9,x,4%,5%,-4
Cc1c(CCOC(=O)CC23CC4CC(CC(C)(C4)C2)C3)sc[n+]1CC(=O)c1ccccc1,0%,u,-2.4,-2.4%,u,-2%,-7
O=C(Nc1nc2ccccc2s1)c1ccc(N2CCCCC2)c([N+](=O)[O-])c1,-24%,1,2.0,0.5%,-27%,-13%,-25
Cc1nc2c(=O)[nH]c(=S)[nH]c2[nH]c1=O,u,x,x,x,x,10%,-7
NC(=O)C1CCN(C(=O)COc2ccc(Nc3ccccc3)cc2)CC1,3%,-1,0.4,-4.4%,-7%,-17%,-2
O=C(O)Cn1cnc2c(OCc3ccccc3)ncnc21,x,x,x,-0.7%,x,5%,-4
CC1CCCC(C)N1C(=O)CN1C(=O)NC2(CCOc3ccccc32)C1=O (stereo not given),-2%[15.4 µM],28,x,x,x,3%,-7
Cc1ccc(C(=O)COC(=O)CN2C(=O)C3C4C=CC(C4)C3C2=O)cc1[N+](=O)[O-] (stereo not given),14%[15.4 µM],12,0.2,x,5%,2%,-24
C(#Cc1ccc2c(c1)COc1c3ccccc3nn1-2)c1ccccc1,x,16,x,-7.8%,x,-1%,-5
O=C(CN1CCN(c2ccc([N+](=O)[O-])cc2)CC1)c1ccccc1,0%[15.4 µM],29,1.7,-1.4%,u,-13%,-6
O=C(CSc1nnc2ccccn12)Nc1ccc(N2CCOCC2)cc1,24%,x,x,1.0%,x,2%,-4
O=C(c1ccco1)N1c2ccccc2Sc2ccccc21,-54%[inhibitor],9,-1.2,-0.5%,-22%,-30%,-8
Cc1ccsc1/C=N/n1c(C2CCCCC2)n[nH]c1=S,4%,7,0.0,-2.6%,-28%,-5%,-8
COc1ccc(S(=O)(=O)N(C)CC(=O)Nc2ccccc2SC)cc1,-4%,0,-2.1,-0.4%,-9%,-25%,-9
O=C(NCC1COc2ccccc2O1)c1cccc(S(=O)(=O)NCc2ccccc2)c1 (stereo not given),9%,8,x,-0.8%,x,-10%,0
COc1ncnc2c1ncn2CCCN[C@H](C)c1cccc2ccccc12,-79%[inhibitor],x,x,1.2%,x,x,-6
O=C(CSc1nnc(-c2ccccc2)o1)c1ccc2c(c1)OCCO2,-32%[inhibitor],3,-1.3,-4.5%,-1%,1%,-5
CC(=O)c1ccc(OCc2ccc(Oc3c(Cl)cccc3[N+](=O)[O-])cc2)cc1,16%[15.4 µM],4,7.2,x,u,-8%,-6
Cc1cc(C)c(N(CC(=O)NCc2ccccc2)C(=O)c2csnn2)c(C)c1,-13%,-28,3.0,x,9%,-2%,-3
CN(C(=O)CSc1nnc(-c2ccco2)o1)C1CCCCC1,17%,-11,1.0,-2.5%,11%,-3%,-33
CC(C(=O)O/N=C(\N)c1ccccn1)c1ccc([N+](=O)[O-])cc1 (stereo not given),-8%,8,-1.7,-1.8%,3%,0%,0
O=c1cnnc(N/N=C/c2ccccn2)[nH]1,29%,6,-1.4,0.4%,8%,11%,-20
c1ccc2c(c1)Sc1ccccc1-n1cnnc1-2,-6%,2,0.7,0.2%,16%,-9%,-7
CCN1C(=O)/C(=C2\SC(=S)N(CC3CCCO3)C2=O)c2ccccc21 (stereo not given),x,5,1.7,x,19%,x,x

# Pulled by compound from the list above:
SMILES,gsp ag,TRPV1 potentiator,Menin-MLL FL inh,ClpP mod,Sfp PPTase inh,gsp antagonist,D2 PAM
O=C(Nc1nc2ccccc2s1)c1ccc(N2CCCCC2)c([N+](=O)[O-])c1,-24%,1,2.0,0.5%,-27%,-13%,-25
C(#Cc1ccc2c(c1)COc1c3ccccc3nn1-2)c1ccccc1,x,16,x,-7.8%,x,-1%,-5
O=c1cnnc(N/N=C/c2ccccn2)[nH]1,29%,6,-1.4,0.4%,8%,11%,-20
Cc1[nH]c2ccccc2c1C(=O)COC(=O)Cn1c(C(F)(F)F)nc2ccccc21,u,3,5.7,1.0%,-20%,-24%,8
O=C(NCC1COc2ccccc2O1)c1cccc(S(=O)(=O)NCc2ccccc2)c1 (stereo not given),9%,8,x,-0.8%,x,-10%,0
O=C(O)Cn1cnc2c(OCc3ccccc3)ncnc21,x,x,x,-0.7%,x,5%,-4

# (continued)
SMILES,gsp ag,TRPV1 potentiator,Menin-MLL FL inh,ClpP mod,Sfp PPTase inh,gsp antagonist,D2 PAM
O=C1CCN(CCc2ccccc2)CCN1[C@H](CSc1ccccc1)c1ccccc1,-43%[inhibitor],-2,4.2,0.2%&-2.6%,-7%,-17%,-31
O=C(CBr)c1ccc([N+](=O)[O-])c(CS(=O)(=O)c2ccc(Cl)cc2)c1,-22%,-19,-11,0.8%,56µM*,-15%,-37
Cc1nc(-c2ccccc2)sc1C1(C)CC(c2ccc(OC(F)(F)F)cc2)=NO1 (stereo not given),x,26,2.1,-18%,7%,7%,1
C/C(=N\Nc1ccc(S(=O)(=O)Nc2ccc(Cl)cc2)cc1[N+](=O)[O-])c1ccc(N2CCOCC2)cc1,14%[15.4 µM],0,4.3,-4.9%,11%,9%,-18
Cc1cc(C(=O)Nc2ccccc2C)c2ccccc2n1,1%,-4,-3.1,x,5%,-2%,1
COc1cc(CN2CCC(C(=O)NCCC(C)C)CC2)ccc1OCc1ccccc1,1%,-19,-1.3,0.0%,10%,6%,1
O=[N+]([O-])c1cccnc1NCCNc1ncc(C(F)(F)F)cc1Cl,0%,1,4.0,-2.1%,4%,-1%[15.4 µM],-13
Nc1nnn(CC(=O)N/N=C/c2cccc(Cl)c2)n1,-3%[15.4 µM],-16,2.8,0.1%,22%,3%,16
Cn1c(NC(=O)/C=C\c2ccccc2)cc(=O)n(C)c1=O,5%[15.4 µM],23,0.2,x,-7%,-14%,-14
CCOCc1nnc(NC(=O)c2ccc(OC)cc2)s1,-50%[inhibitor],6,0.5,-2.0%,-7%,1%,-5
Cc1noc(C)c1S(=O)(=O)Nc1ccc(C(=O)NC2CCCCC2)cc1,-41%[inhibitor],-3,2.8,-4.1%,4%,0%,21
COC(=O)c1ccc(CN2CCCC(C(=O)c3ccccc3OC)C2)cc1 (stereo not given),-1%,1,0.9,-1.1%,7%,-3%,-3
CCCCc1nnc(NC(=O)c2ccc(N3CCCC3=O)cc2)s1,-92%[inhibitor],9,x,-18%,x,8%,22
Cc1ccc(-c2[nH]n3c(=O)c4c(nc3c2C)CCCC4)cc1,8%,-6,3.3,u,-8%,-2%,-30
COCC1CCCN(C(=O)c2cc(COc3cncc(Cl)c3)on2)C1 (stereo not given),7%,-33,-4.2,0.3%,10%,9%,-9
COc1ccc(CNC(=O)COC(=O)C2=Cc3ccccc3OC2)cc1,-2%[15.4 µM],x,x,x,x,-6%,-5
COc1ccc(NC(=O)c2ccco2)cc1NC(=O)COc1ccccc1[N+](=O)[O-],6%[15.4 µM],-1,-0.3,-2.7%,-5%,10%,2
Cc1ccc(NC(=O)c2cc(S(=O)(=O)N3CCc4ccccc43)cn2C)cc1C,4%,-14,-5.7,u,15%,-31%,0
COc1ccccc1NC(=O)CN(c1ccc(C)cc1)S(=O)(=O)c1c(C)n[nH]c1C,4%,-6,0.2,-2.3%,11%,-15%,0
N#CCCNC(=O)CCN1CCCCC1,20%,18,-1.1,-2.9%,13%,5%,-4
CCCCOc1ccc(C(=O)N/C(=C\c2ccc([N+](=O)[O-])cc2)C(=O)OCc2ccco2)cc1,u,-7,0.4,-3.0%,9%,-9%,1
Cc1ccc2oc(C(=O)N3CCCCCC3)c(C)c2c1,u,-25,x,-2.2%,-5%,-14%,-13
CCOc1ccc(CCNC(=O)Cc2ccc(S(=O)(=O)N3CCOCC3)s2)cc1OCC,-13%,2,x,-3.4%,x,4%,30
Cc1cc(N2CCC(C(N)=O)CC2)nc(-c2ccccc2)n1,20%,2,-0.3,-3.5%,0%,-3%[15.4 µM],-5
O=C(N1CCOCC1)C(F)(F)C(=O)N1CCOCC1,7%,-13,6.0,-1.4%,22%,12%,-2
COc1cccc(CC(=O)OCC(=O)c2cc(OC)ccc2OC)c1,-7%,-9,x,-6.0%,x,-5%,-1
Cc1cc(C)c(C#N)c(SCC(=O)C2CC2)n1,-4%,-3,-1.1,25%,1%,8%,0
CC(C)Nc1nc(NC(C)C)nc(N(C)C#N)n1,22%,0,-1.4,-2.6%,-3%,19%,-10
C[C@@H]1CN([C@@H](C)CO)S(=O)(=O)c2ccc(Br)cc2O[C@@H]1CN(C)C(=O)c1ccc(F)cc1,-70%[inhibitor],x,x,-1.1%,x,x,0
Cc1ccc2oc(=O)n(CC(=O)OC(C)C)c2c1,4%,14,1.1,1.9%,21%,2%,-12
Cc1ccc(C(=O)COC(=O)c2ccccc2NC(=O)c2ccccc2)cc1[N+](=O)[O-],-30%,5,-0.1,1.2%,-6%,-2%,-3
O=c1c2cccnc2nc2n1CCCCC2,50%,-9,-5.5,-2.6%,15%,8%,-2
